Mtb hypoxia rep: Mtb hypoxia fluorescent reporter inhibition | M. tuberculosis hypoxia-regulated fluorescent reporter, fluorescence | fluorescence inhibition, % (no concentration beside the values) | actives 0.1% (n = 300,000);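 active = 35 to 45% if threefold the growth effect, above 45% if 1.5-fold the growth effect; inactive = the rest, general growth blockers included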;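 note: wells of about 50 µL received 100 nL stock; 0% = vehicle wells and 100% = reference inhibitor wells; whole bacteria with a GFP reporter of the hypoxia response; strong numbers were not always called active; many hits fall short of the cut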
Autofluor counter: compound fluorescence in toxin protease inhibitor counterscreen. compound autofluorescence counterscreen, microsphere flow cytometry; hits give high values. fluorescence intensity (no concentration beside the values). actives 3.1% (n = 360,000);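 active = at least 3 SD above the mean of all compounds, about 16000 in these data; inconclusive = too few beads counted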;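 note: 100 nL of 1 mM stock went into each well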
BJeLR lethal: kills HRASV12-expressing BJeLR cells; BJeLR (HRASV12) viability, CellTiter-Glo ATP luminescence, 48 h; reference of the scale not given here; inhibition, % (no concentration beside the values); actives 0.17% (n = 300,000); AID 1554;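 active = replicate mean above 50%; inconclusive = above 50% but judged a plate artefact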;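 note: 50 nL library stock added to about 25 µL; numbers are from one replicate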
RN4220 kill: kills Staphylococcus aureus RN4220; S. aureus RN4220 growth, OD600, 16 h; inhibition, % (concentration not given with the values); actives 0.33% (n = 330,000); AID 1259311;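 active = z-score of -3 or lower and OD600 up to 0.18 on both plates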;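 note: plate controls were untreated cells for no effect and reference antibiotic for full effect; stock transfer was 100 nL into about 80 µL; one replicate is shown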
PrP UTR inh: suppresses PrP 5' UTR mRNA reporter expression | actives 0.35% (n = 340,000) | inhibition, % (test concentration not listed) | AID 488862 | cell-based PrP 5' UTR mRNA reporter, plate reader;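 active = every replicate at 50% or more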;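 note: 0 = median of the neutral control wells; tested in H4 reporter cells; numbers are from one replicate; inactives centre near -14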
Sa ugtP lethal: kills S. aureus RN4220 lacking UgtP; S. aureus RN4220 ugtP deletion, OD600 growth, 16 h; some inactives read as strong as hits; growth inhibition, % (test concentration not listed); AID 1259309; actives 0.54% (n = 330,000);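 active = z-score under -3 and OD600 up to 0.15 on both plates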;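 note: plate controls were untreated wells for no effect and antibiotic for full effect; wells of about 80 µL received 100 nL stock; the first replicate is given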
Mtb hypoxia rep growth: further read-out of Mtb hypoxia rep, marked with its call; growth inhibition, %; measured here: M. tuberculosis growth (absorbance);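 0% = vehicle and 100% = reference antibiotic; read after six days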
* = called active by the depositor; ? = inconclusive; . = no result given.

A first look, 3 compounds:
Second line of a record: Mtb hypoxia rep	Mtb hypoxia rep growth	Autofluor counter	BJeLR lethal	RN4220 kill	PrP UTR inh	Sa ugtP lethal
- CCOC(=O)c1ccccc1NC(=O)C1CCN(c2ncnc3sc(C)c(C)c23)CC1
 : -8	6	?	13	1.2	0	-4
- O=S1(=O)CCOC[C@H](CC2CCCCC2)N1Cc1ccc(F)cc1
 : .	.	3893	-3	.	5	.
- CC1(C)CC2(CC(C)(C)NC(=O)N2)NC(=O)N1
 : 4	7	2411	-9	-18	-19	-2

All compounds of this part, from the first entry:
Second line of a record: Mtb hypoxia rep	Mtb hypoxia rep growth	Autofluor counter	BJeLR lethal	RN4220 kill	PrP UTR inh	Sa ugtP lethal
- CCOC(=O)c1ccccc1NC(=O)C1CCN(c2ncnc3sc(C)c(C)c23)CC1
 : -8	6	?	13	1.2	0	-4
- O=S1(=O)CCOC[C@H](CC2CCCCC2)N1Cc1ccc(F)cc1
 : .	.	3893	-3	.	5	.
- CC1(C)CC2(CC(C)(C)NC(=O)N2)NC(=O)N1
 : 4	7	2411	-9	-18	-19	-2
- COc1ccccc1OCC(=O)Nc1ccc2c(c1)n(C)c(=O)n2C
 : 10	2	4372	3	-1.9	-7	1
- CCC1=C(OC(=O)N(CC)CC)N2C(=O)OC(=NCCc3c[nH]c4ccccc34)[C@]2(Cc2ccccc2)C2C1=CCC1C(=O)N(CC)C(=O)C12 (stereo partly specified)
 : 15	10	.	.	8.5	.	3
- O=C(COC(=O)c1ccc(O)cc1O)c1ccc2c(c1)OCCO2
 : 5	0	.	.	6.9	-47	-5
- Cc1ccc(S(=O)(=O)n2c3ccc(Cl)cc3c3nc(C)sc32)cc1
 : 7	-2	2223	-3	-1.1	-20	11
- Clc1cc(Cl)c(Cl)cc1Cl
 : 7	7	4812	.	4.3	-12	6
- Cn1c(SCc2cc(=O)[nH]c3ccccc23)nnc1-c1ccco1
 : .	.	3336	12	5.6	-7	3
- O=C(Nc1nc2c(s1)CCCC2)c1ccc2ncsc2c1
 : -5	-5	5902	0	1.8	-57	-13
- CCOc1nc2cnccc2n(CC(=O)Nc2cccc(C)c2)c1=O
 : 1	7	5132	-2	4.0	-11	5
- N#Cc1cc2c(nc1S(=O)(=O)Cc1ccccc1)CCCC2
 : -7	0	3978	5	2.4	-32	7
- Cc1cccc(COCC(Cc2ccccc2)N2CCN(C(=O)c3ccc(C(F)(F)F)cc3)CCC2=O)c1 (stereo unspecified)
 : 10	11	4019	-11	1.4	-34	5
- O=C(Nc1ccncc1)c1ccc(-c2ccccc2)cc1
 : 17	5	3354	18	6.8	-42	2
- COc1ccc(/C=N/n2cc(-c3ccc(OC)cc3)nc2N)cc1
 : .	.	4381	-4	.	-7	.
- Cc1nnnn1/C(=C\c1ccccc1)C(=O)OCC(=O)NC(C)(C)C
 : 8	2	9637	11	2.3	-1	-2
- CC(NC(=O)CNC(=O)c1sc2ccccc2c1Cl)c1cccnc1 (stereo unspecified)
 : -10	9	5407	-6	-2.4	-8	-3
- O=C(COn1nnc2ccc(Cl)cc21)NC12CC3CC(CC(C3)C1)C2
 : 8	9	10895	5	7.7	12	-8
- Cc1c(NC(=O)Nc2ccccc2)c(=O)n(-c2ccccc2)n1C
 : 8	6	4277	-1	-4.1	-18	7
- CCOc1ccccc1/C=N/NC(=O)c1nnn(-c2nonc2N)c1CN1CCCC1
 : .	.	4343	-5	.	5	.
- Cc1ccc2c(c1)c1ncnc(N3CCOCC3)c1n2C
 : .	.	2480	-2	2.6	-12	0
- CCn1c2ccccc2c2cc(NC(=O)CSc3nnc(-c4cccc(F)c4)o3)ccc21
 : 1	2	3354	6	-2.3	-6	-26
- O=C(Nc1ccsc1C(=O)O)c1cccc(C(F)(F)F)c1
 : .	.	3887	10	.	-10	.
- CCOC(=O)CSc1nnnn1-c1cc(OC)ccc1OC
 : 3	3	16299*	4	1.1	-7	6
- O=C(Nc1ccc(Cl)cc1C(=O)NCC1CCCO1)c1ccco1 (stereo unspecified)
 : 5	12	23431*	-7	2.7	4	-4
- CCOc1ccc(Cl)cc1S(=O)(=O)NC1CCCC1
 : -3	2	5501	3	-2.4	-4	0
- CCOC(=O)N1CCN(C(=O)COc2ccc3c(c2)C(=O)CC2(CCN(C(C)=O)CC2)O3)CC1
 : -1	-1	7816	-10	1.0	-27	1
- Cc1ccccc1NC(=O)/C(=C/c1cccs1)NC(=O)c1ccco1
 : 2	5	2456	-13	2.0	-8	4
- COc1cc(/C=C2\CCCc3c2nc2ccccc2c3C(=O)O)cc(Cl)c1O
 : .	.	3424	4	.	-5	.
- CC(C)(C)OC(=O)C(C1NC(C(=O)O)C(C)(C)S1)N1C(=O)c2ccccc2C1=O (stereo unspecified)
 : -3	8	3732	.	2.9	-13	7
- CCCn1nnc(NC(=S)NC(=O)/C=C/c2ccc(Cl)cc2)n1
 : -1	8	4171	-5	0.8	-5	1
- Cn1c(N)c(S(=O)(=O)N2CCN(c3ccccc3)CC2)c(=O)n(C)c1=O
 : 4	3	2691	-2	2.5	-21	10
- COc1ccccc1CCC(=O)N1CCC(n2nccc2NC(=O)CC(C)C)CC1
 : -2	0	6167	4	0.7	-2	6
- O=C(NCCO)/C(=C\c1ccc(Br)cc1)NC(=O)c1cccs1
 : -3	-9	2004	-6	-3.5	-26	4
- CCN(CC)c1ccc2cc(C(=O)Nc3ccccn3)c(=O)oc2c1
 : 5	1	3169	4	2.0	-31	8
- CCc1nc(SCc2cccnc2)c(C#N)cc1C
 : 4	9	9944	-7	1.7	-18	-5
- Cc1cc(C)c2nc(N3CCCN(C(=O)c4cnccn4)CC3)c(C#N)cc2c1
 : -4	-1	9184	-10	-5.7	-22	-22
- O=C(NC1CCCc2ccccc21)c1ccccc1Cl (stereo unspecified)
 : 7	2	4295	5	15	-36	7
- COc1ccc(C2CC(=O)C=C(c3cc(Br)ccc3OC)C2)cc1 (stereo unspecified)
 : 4	8	.	.	4.9	.	3
- Cc1cc(C)n(-c2ccccc2C#N)n1
 : 16	2	3435	-4	3.5	-16	8
- O=C(/C=C/c1ccc(-c2ccccc2[N+](=O)[O-])o1)c1ccccc1
 : .	.	2379	1	.	-43	.
- COc1cc(C=N/N=C2/NC(=O)C(c3ccccc3)S2)ccc1O (stereo unspecified)
 : 10	-1	.	.	-7.3	.	-4
- Cc1ccc(S(=O)(=O)c2nc(-c3ccccc3)oc2N2CCCC2)cc1
 : 10	8	3441	.	-0.2	-23	6
- COc1ccc(C2NC(=O)NC(C)=C2[N+](=O)[O-])cc1 (stereo unspecified)
 : 0	-2	3882	-16	0.6	-11	6
- Cc1cc(C(F)F)n2nc(C(=O)Nc3cccc(S(=O)(=O)N4CCOCC4)c3)nc2n1
 : 1	-4	4965	-3	1.7	-16	4
- NS(=O)(=O)c1ccc(CCNC(=O)c2ccc(Cl)s2)cc1
 : -1	11	5447	1	-0.6	0	-3
- CCCn1nnc(NC(=O)c2cccc(OCC(C)C)c2)n1
 : 4	9	4316	2	3.7	-18	-10
- COc1ccccc1CNC(=O)Cc1cc(=O)[nH]c(=O)[nH]1
 : 4	9	5913	-19	-3.9	-26	-4
- Cc1ccc(CC(=O)Nc2cc(C)ccn2)cc1
 : -4	2	.	1	0.6	-16	0
- COc1ccc(C(=O)Nc2cccc(/C(C)=N/NC(=O)c3ccc([N+](=O)[O-])c(C)c3)c2)cc1OC
 : .	.	3689	4	.	-30	.
- COc1ccc(S(=O)(=O)N2c3ccccc3OCC2C(C)(C)C)cc1 (stereo unspecified)
 : -4	10	4485	-3	5.8	-1	9
- Cc1[nH]n(-c2ccccc2)c(=O)c1N=Nc1ccccc1
 : 2	-7	2183	3	5.7	-117	6
- Cc1ccc2oc(=O)c3cnn(CC(=O)Nc4cc(-c5cccc(F)c5)no4)c3c2c1
 : 8	8	5404	-6	-18	-16	-5
- CC(C)Cn1c(=O)c(C(=O)NN=Cc2cccc(F)c2)c(O)c2ccccc21
 : 7	3	.	.	100*	.	99*
- Cc1c(Cl)cccc1NC(=S)N1CCN(S(=O)(=O)c2cccs2)CC1
 : 11	1	4904	-1	9.7	-27	3
- COc1ccc(-c2nc(C)ncc2-c2ccc(Cl)cc2)c(O)c1
 : 0	3	3827	-1	-0.3	-4	9
- N#CCC(=O)Nc1ccc(C(=O)OCC(=O)N2CCN(C(=O)c3ccco3)CC2)cc1
 : 7	14	2995	.	2.8	-6	2
- CN(CC(=O)Nc1cccc(F)c1)C(=O)/C=C/c1cc(Br)ccc1OC(F)F
 : -3	1	5600	-6	13	-78	-3
- O=C(CC1C(=O)NCCN1CC(c1ccccc1)c1ccccc1)NCC1CCOCC1 (stereo unspecified)
 : 4	1	5833	-7	3.3	-14	11
- CC1CCCC2(C1)NC(=S)N(c1ccccc1)N2 (stereo unspecified)
 : 10	4	6042	-5	3.4	-9	35

Further structures follow:
Second line of a record: Mtb hypoxia rep	Mtb hypoxia rep growth	Autofluor counter	BJeLR lethal	RN4220 kill	PrP UTR inh	Sa ugtP lethal
- CCN(CC)c1ccc(C=NNC(=O)c2cc(C)nc3ccccc23)cc1
 : -9	-3	.	.	-0.6	.	3
- O=C(ON=C(c1ccccc1)c1ccncc1)c1ccccc1F
 : -9	4	.	.	-4.5	.	-4
- O=C(O)c1cccc(Cn2c(Cl)c(/C=N/NC(=O)c3ccccc3)sc2=O)c1
 : .	.	3043	7	.	-9	.
- O=C(Oc1cccc(Br)c1)c1cccnc1
 : 6	0	4387	-1	0.1	-5	-2
- O=C(c1ccc2c(=O)n3c(nc2c1)CCCCC3)N1CCN(c2ccc(F)cc2)CC1
 : 16	15	3407	2	3.1	-12	1
- Cc1nc2cc(Cl)c(Cl)cc2nc1C
 : 7	-1	8265	-7	0.0	-40	-4
- Cc1cccc(NC(=O)C2CCCN2S(=O)(=O)c2ccc(Cl)cc2)n1 (stereo unspecified)
 : .	.	5241	-6	.	-8	.
- O=C(COc1ccc(Cl)cc1Cl)NC(=O)c1ccccc1
 : 6	11	4593	7	-0.8	-15	0
- O=c1c(F)cn(C2CCCO2)c(=O)n1Cc1c(F)cccc1Cl (stereo unspecified)
 : 2	5	15527	-8	0.5	-43	0
- CCOC(=O)NC(=O)COC(=O)c1ccc(Sc2ncn[nH]2)c([N+](=O)[O-])c1
 : 3	16	4610	8	0.7	-21	-4
- COc1ccc(-c2noc(CCC(=O)N3CCN(c4cccc(OC)c4)CC3)n2)cc1
 : -8	8	3864	.	5.5	-29	5
- CC(=O)c1c(C)[nH]c(C(=O)OCC(=O)NCc2ccc(Cl)cc2)c1C
 : 13	5	5425	.	5.8	-23	4
- CCOC(=O)N1CCN(C(=O)c2cc3cc(C)ccc3[nH]2)CC1
 : 9	-5	3334	-11	2.8	-2	11
- CNCC(Cc1ccccc1)NCC(Cc1cccc2ccccc12)NCCc1ccc(C)cc1 (stereo unspecified)
 : .	.	.	.	101*	.	100*
- Cc1ccccc1NC(=O)c1sc2nc[nH]c(=O)c2c1C
 : 3	0	6742	-3	2.4	-33	3
- NC(=O)CSc1nc2cc([N+](=O)[O-])ccc2n1-c1cccc(C(F)(F)F)c1
 : 4	0	10121	4	5.3	-14	2
- Cc1ccc(OCCC(=O)NNC(=O)c2ccccc2F)cc1
 : 9	5	.	.	2.2	.	2
- O=C(c1cccs1)N1CCN(Cc2ccccn2)CC1
 : -4	2	3722	-4	6.0	-10	-1
- O=C(Nc1ccccc1-c1ccccc1)c1cnccn1
 : 1	5	3369	4	-18	-39	-7
- Cc1ccc(S(=O)(=O)NC(C(=O)N2CCN(S(=O)(=O)c3cccc(F)c3)CC2)C(C)C)cc1 (stereo unspecified)
 : -4	-5	?	.	3.2	-6	2
- CSc1ccc(CN(C)C(=O)C(Cc2ccccc2)NC(=O)c2ccccc2)cc1 (stereo unspecified)
 : 9	10	5518	0	-0.7	0	6
- N#Cc1c(Cl)cccc1N1CCCC1
 : 7	8	.	2	8.0	7	12
- O=C(CC1(O)C(=O)Nc2ccccc21)c1ccccc1 (stereo unspecified)
 : 7	6	5778	-8	2.7	-20	7
- O=C(O)CSc1nnc(-c2ccccc2O)n1Cc1ccccc1
 : 5	10	3866	-1	4.0	-23	1
- COc1ccc(-c2noc(CCC(=O)NC3CCN(Cc4ccccc4)CC3)n2)cc1
 : 13	13	4230	-13	0.6	-12	0
- CC(=NNc1nnc2c3ccccc3n(C)c2n1)c1ccc(C)o1
 : -7	-7	.	.	1.7	.	4
- CC(C)NC(=O)CC(=O)NN=Cc1ccc(Br)cc1
 : 9	6	.	.	0.6	.	11

Source: PubChem (several laboratories)
